Rango-impB inh = qHTS Assay for Inhibitors of Rango (Ran-regulated importin-beta cargo) - Importin beta complex formation; Importin subunit beta-1 (Homo sapiens), Q14974; Rango CFP/YFP FRET sensor + importin beta, 45 min; Potency, µM (top dose mostly 92.2 µM), inactives show top-dose inhibition of complex formation; 340,000 tested, 0.031% active; active = rising FRET ratio curve, often small or poorly fitted; inconclusive = mostly compound fluorescence or quenching in the first reads; inactive = flat curves in all reads;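 further: potency means the concentration at half of the fitted maximal effect; 0% = DMSO wells and 100% = buffer wells lacking importin beta; nearly all actives have a fitted effect of over 15% in size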
Target sequence (Q14974 whole entry, looked up): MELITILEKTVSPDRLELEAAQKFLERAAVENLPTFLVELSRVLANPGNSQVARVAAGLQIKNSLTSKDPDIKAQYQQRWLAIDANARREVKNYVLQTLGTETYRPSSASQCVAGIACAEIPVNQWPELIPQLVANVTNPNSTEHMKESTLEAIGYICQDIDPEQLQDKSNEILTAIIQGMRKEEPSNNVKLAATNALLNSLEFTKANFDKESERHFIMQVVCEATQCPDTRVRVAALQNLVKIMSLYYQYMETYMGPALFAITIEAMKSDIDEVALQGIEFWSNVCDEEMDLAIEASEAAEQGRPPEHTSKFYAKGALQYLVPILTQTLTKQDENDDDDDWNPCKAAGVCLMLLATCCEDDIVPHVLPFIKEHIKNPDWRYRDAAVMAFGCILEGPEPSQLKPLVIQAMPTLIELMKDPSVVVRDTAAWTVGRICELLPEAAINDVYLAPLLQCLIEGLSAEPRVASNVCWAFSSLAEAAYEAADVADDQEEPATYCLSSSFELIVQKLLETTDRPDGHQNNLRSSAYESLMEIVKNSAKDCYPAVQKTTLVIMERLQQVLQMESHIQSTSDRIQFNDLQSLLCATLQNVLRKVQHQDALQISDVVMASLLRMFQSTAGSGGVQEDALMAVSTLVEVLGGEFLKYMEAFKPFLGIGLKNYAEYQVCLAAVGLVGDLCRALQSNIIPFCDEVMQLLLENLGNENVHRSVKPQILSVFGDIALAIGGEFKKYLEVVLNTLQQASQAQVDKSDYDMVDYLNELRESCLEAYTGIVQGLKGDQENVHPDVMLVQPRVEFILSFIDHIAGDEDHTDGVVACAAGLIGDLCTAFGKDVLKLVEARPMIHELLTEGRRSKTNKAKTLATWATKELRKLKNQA
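Inhibition scored from the CFP 486 nm/YFP 530 nm FRET ratio 45 min after adding 0.125 microM importin beta to 50 nM Rango biosensor preincubated 5 min with compound (room temperature, PBS with DTT, Tween-20, BSA). No-importin wells as positive control.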
Rango dissoc inh = qHTS Assay for Inhibitors of RanGTP induced Rango (Ran-regulated importin-beta cargo) - Importin beta complex dissociation. Snurportin-1 (Homo sapiens) + GTP-binding nuclear protein Ran (Homo sapiens) + Importin …. Biochemical FRET Rango-importin beta, RanGTP-induced dissociation. Potency, µM (series often up to 46.1 µM), without a hit: at the top dose activity change, negative = inhibition. 340,000 tested, 0.071% active; active means falling FRET ratio curve, often poorly fitted, with flat reads before Ran was added; inconclusive means other falling curves, or compound fluorescence or quenching; inactive means flat or rising ratio curve;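 further: potency means the concentration at half of the fitted maximal effect; % of control where 0% means no effect; nearly all actives have a fitted effect of over 45% in size; -100% = wells without RanGTP and RCC1; the record marks most hits as doubtful in a second field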
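Quantitative HTS using a FRET biosensor: 0.1 uM Rango, 0.25 uM importin beta, 0.6 uM Ran, 2 mM GTP, 0.2 uM RCC1 final, PBS with DTT, Tween-20 and BSA. Post-read taken 45 min after Ran addition.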
GLA inh pH 4.5 = qHTS Assay for Inhibitors of Human alpha-Galactosidase at pH 4.5; activity change, negative = inhibition, % at 105 µM; Alpha-galactosidase A (Homo sapiens), P06280; purified enzyme, 4-MU-alpha-Gal fluorescence, pH 4.5; 230,000 tested, under 10 active; inconclusive = small, poorly fitted or top-dose-only inhibition, or a rising curve; inactive = flat fitted curve, though single readings scatter; no compound was filed as active;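 further: 0% = full activity with enzyme and -100% = basal without enzyme; dose as in the result columns while the protocol names 77 µM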
miR-21 reporter = qHTS Assay for Modulators of miRNAs and/orActivators of miR-21; HeLa miR-21 FLuc reporter, luciferase, 48 h; Potency, µM (doses to about 38.3 µM), for the others: at the top dose reporter change, positive = more light; 340,000 tested, under 10 active; AID 2288, 2010; active = well fitted rising curve with a large enough effect; inconclusive = small, poorly fitted or top-dose-only effect; inactive = no such curve, though single readings can be large or run the other way;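 further: % of control where 0% means no effect; miR-21 action dims this reporter so a rising signal means less miR-21 action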
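Luminescence from a firefly luciferase reporter carrying a miR-21 binding site downstream, stably expressed under a CMV promoter in HeLa cells that make miR-21 endogenously, reports miRNA modulation after 48 h compound exposure up to approximately 40uM final.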
* hit, by the source's call; ? = inconclusive; / = no result given; & = joins results of further samples; [ ] = dose if it differs, or a comment. Some of the compounds tested; the hit share may differ from the screen's.

no.	Rango-impB inh	Rango dissoc inh	GLA inh pH 4.5	miR-21 reporter	Molecule
1	-2.9%	9%	3[21.1 µM]	0%	CC(C)CCNC(=O)NC(=O)COC(=O)/C=C/c1cc(Br)ccc1F
2	-2.9%	1%	6	10%	Cc1cc(O)c(C(C)C)cc1NC(=O)c1cccc(Cl)c1
3	0.1%	1%	/	/	Cc1ccc(S(=O)(=O)N(C)C)cc1NC(=O)COC(=O)CN1C(=O)c2ccccc2C1=O
4	?	?	/	1%	Cn1c(=O)[nH]c2c(nc(-c3ccc(Cl)cc3)n2C)c1=O
5	4.6%	6%	/	/	Cc1ccc(-c2cc(-c3ccccc3)no2)cc1
6	-0.3%	2%	-17	-14%	CCOc1ncccc1C(=O)NCc1ccc(C)cc1
7	-5.2%	11%	6	-24%	O=C(CSc1nc2ccccc2c(=O)n1-c1ccc(F)cc1)NCc1ccco1
8	-0.6%	1%	-4	-35%	COCCn1nnnc1SCC(=O)c1ccc(F)cc1
9	2.7%	-18%	/	-6%	Cc1ccc(C)c(N2CCN(C(=O)c3ccc(Cl)c(NC4=NC5CS(=O)(=O)CC5S4)c3)CC2)c1 (stereo not drawn)
10	0.1%	-8%	4	-1%	CCC(=O)Nc1c(C(=O)N2CCN(c3ccccn3)CC2)cnn1-c1ccc(C)cc1
11	2.0%	4%	6	-9%	Cc1ccccc1Cn1nc(C)c(NC(=O)c2nc3n(n2)C(C(F)F)CC(C)N3)c1C (stereo not drawn)
12	1.1%	2%	6	-8%	CC(C)c1c(Cl)c(O)c(-c2ccccc2)c(=O)n1-c1ccc(F)cc1
13	-0.6%	0%	-22	-11%	CC(CNS(=O)(=O)c1cc(Cl)ccc1Cl)CN(C)C (stereo not drawn)
14	2.8%	10%	-1	-6%	O=C(CCCC(=O)N(c1ccc2c(c1)OCCO2)C(C(=O)NC1CCCCC1)c1ccc(F)cc1)Nc1ccccn1 (stereo not drawn)
15	-0.5%	-6%	0	0%	Cc1occc1-c1nnc(SCC(=O)N2CCc3ccccc32)o1
16	-1.1%	-11%	1	8%	COc1cccc2c(=O)cc(C)n(CC(=O)Nc3ccccc3C)c12
17	-3.1%	-2%	/	/	COc1ccc([C@H]2CC(=O)C=C(c3ccc4ccccc4c3)C2)cc1OC
18	-2.6%	1%	4	-58%	Cc1ccc(NC(=O)N2CCCc3ccccc32)cc1
19	-3.3%	17%	-2	-29%	Cc1ccc(OCCCn2cc(C#N)c3ccccc32)cc1
20	-1.3%	11%	/	0%&6%	Cc1ccc(N2CC(C(=O)NCCS(=O)(=O)N3CCN(c4ccc(F)cc4)CC3)CC2=O)cc1 (stereo not drawn)
21	-0.2%	-7%	/	-2%	COCCCNC(=O)c1ccc(S(=O)(=O)c2ccc(C)cc2)c(NC(C)=O)c1
22	3.8%	2%	/	/	O=C(Nc1cc(Cl)ccc1-n1cncn1)c1ccccc1OC(F)F
23	0.3%	-13%	-5	-1%	O=C(CN(c1cccc([N+](=O)[O-])c1)S(=O)(=O)c1ccccc1)N(Cc1ccccc1)Cc1ccccc1
24	-0.1%	-1%	-3	2%	C=CCNc1c2c(nc3nnnn13)CCCC2
25	/	/	-6	8%	COC(=O)Nc1nc2ccc(C(=O)c3ccc(F)cc3)cc2[nH]1
26	-5.8%	-3%	/	-12%	Cn1c(SCC(=O)Nc2ccc(F)cc2)nnc1C1CC1
27	1.9%	1%	20	-31%	Cc1ccc(C(=O)Nc2ccc(-c3csc(C)n3)cc2)cc1
28	-0.3%	-11%	/	/	O=C1C(Cc2ccccc2)Nc2ncnc(N3CCN(c4ccccc4)CC3)c2N1Cc1ccc(Br)cc1 (stereo not drawn)
29	0.5%	8%	2	-16%	CCOc1ccc(NC(=O)CNC(=O)COc2ccccc2)cc1
30	-0.4%	-20%	/	-45%	CN1CCN(c2ccc(NC(=O)c3ccc(Br)o3)cc2)CC1
31	?	-28%	-1	1%	CCOC(=O)CC(=O)CSc1nc2cc(C)ccc2cc1C
32	-0.3%	-7%	-7	-7%	CC(CN(C)Cc1ccccc1)OC(=O)c1ccc(F)cc1 (stereo not drawn)
33	1.5%	6%	/	13%	C=CCN(c1ccccc1)S(=O)(=O)c1cccc(C(=O)N(CC)CC(=O)Nc2c(F)cccc2F)c1
34	?	?	9	-19%	COc1ccc2ccccc2c1/C=N/NC(=O)c1sc(N)c(C#N)c1C
35	6.0%	-9%	-3	7%	N=c1c2c(ncn1CCCO)Oc1ccc3ccccc3c1C2c1ccccc1 (stereo not drawn)
36	7.4%	9%	2	-1%	CC1CC(C)CN(CCCNC(=O)c2cn(C)c3ccc(S(=O)(=O)N4CCCC4)cc3c2=O)C1 (stereo not drawn)
37	0.2%	-17%	5	-6%	COc1cccc(-n2c(=O)[nH]cc(C(=O)Nc3ccc(NC(C)=O)cc3)c2=O)c1
38	3.3%	0%	/	-1%	O=C(Nc1cccc(Cl)c1Cl)Nn1cnnc1
39	-0.1%	-4%	-1	-2%	O=C(NN1C(=O)C2C3C=CC(O3)C2C1=O)c1cccc(O)c1 (stereo not drawn)
40	0.1%	22%	7	-3%	CCOC(=O)C(NCc1ccc(OC)cc1)(NC(C)=O)C(F)(F)F (stereo not drawn)
41	4.9%	-1%	-4	22%	COc1ccc(S(=O)(=O)N2CCCC(C(=O)Nc3cccnc3)C2)cc1Cl (stereo not drawn)
42	-1.1%	0%	-6	8%	O=C(NCCCN1CCN(Cc2ccccc2)CC1)C1CCN(S(=O)(=O)N2CCC3(CC2)OCCO3)CC1
43	-0.5%	-23%	-8	-17%	COc1ccc(C(=O)/C=C/N(C)C)cc1OC
44	/	/	0	10%	CC(C)c1ccc(C2C3CSCC=C3C(C#N)=C(N)C2(C#N)C#N)cc1 (stereo not drawn)
45	?	-3%	/	/	FC(F)(F)C1=Nc2cccc3cccc(c23)N1
46	-1.9%	-29%	5	4%	Cn1c(=O)c2c(nc3n2CCS3)n(C)c1=O
47	0.6%	-5%	/	2%	CC1CCCN(C(=O)c2cc(S(=O)(=O)N3CCCCC3)c[nH]2)C1 (stereo not drawn)
48	-0.1%	-15%	/	0%	OCC1(Cc2ccc(F)cc2F)CCCN(Cc2ccc(Cl)cc2)C1 (stereo not drawn)
49	-1.9%	3%	11	-18%	CCOC(=O)C1=C(C)NC(=O)NC1c1ccc(OC)c(Cl)c1 (stereo not drawn)
50	?	-29%	/	-1%&20%	COC(=O)C1=C(C)N(Cc2ccccc2)C(=NCC2CC2)N[C@H]1c1ccccc1

Continuation:
no.	Rango-impB inh	Rango dissoc inh	GLA inh pH 4.5	miR-21 reporter	Molecule
51	3.8%	1%	3	-75%	CN(C)CCCN(C(=O)c1sc2ccccc2c1Cl)c1nc2ccc(F)cc2s1
52	0.1%	-2%	-5	-3%	CN=C(Nc1ccc2c(c1)OCO2)SC1CC(=O)N(c2ccccc2)C1=O (stereo not drawn)
53	0.8%	-32%	/	-6%	S=c1[nH]nc(COc2ccc(Cl)cc2Cl)n1-c1ccccc1
54	-0.3%	-3%	-8	0%	COc1ccccc1N(CC(=O)NCC(C)C)S(=O)(=O)c1cccs1
55	1.2%	9%	3	-11%	CC(=O)NC1(c2ccccc2)CCN(c2cc(C)nc(-c3ccccc3)n2)CC1
56	0.7%	1%	-1	-30%	CCNC(=S)NNC(=O)c1csc(CC)c1
57	-3.0%	2%	-8	-34%	O=C(N/N=C/c1ccc(Br)o1)c1ccc2c(c1)OCCO2
58	-2.4%	-9%	/	/	CCN(C(=O)CSc1nc(C)nc2sc3c(c12)CCC3)C1CCS(=O)(=O)C1 (stereo not drawn)
59	?	?	/	-26%	CCN(CC)c1ccc(/C=C2\SC(N)=NC2=O)cc1
60	3.4%	-5%	6	18%	O=C(OCc1ccccc1)N1CCOCCOCCN(C(=O)OCc2ccccc2)CCOCCOCC1
61	-1.6%	1%	-4	-1%	COc1ccc(/C=C2\N=C(c3ccccc3)NNC2=O)cc1
62	-0.4%	20%	-4	-10%	CC1(C)CC(=O)C(C(=O)CCCCC(=O)C2C(=O)CC(C)(C)CC2=O)C(=O)C1
63	1.6%	1%	/	-6%	CC1CCN(S(=O)(=O)c2ccc(NC(=O)CNC3CCCCC3)cc2)CC1
64	-2.2%	10%	-1	-7%	Nc1nc(N2CCOCC2)nc(N(c2ccccc2)c2ccccc2)n1
65	-3.7%	9%	/	/	CCOc1ccc(C(=O)COC(=O)Cn2cnc3c2c(=O)n(C)c(=O)n3C)cc1
66	3.9%	0%	/	?	O=C(CCl)N(C1CCCC1)C1CCS(=O)(=O)C1 (stereo not drawn)
67	-3.5%	-15%	-9	0%	CC[n+]1ccc(C)c2cc(S(=O)C(F)(F)F)ccc21 (stereo not drawn)
68	-0.2%	-9%	/	/	O=C(CSc1nnc(NC(=O)c2c(F)cccc2F)s1)NCC1CCCO1 (stereo not drawn)
69	-0.5%	1%	5	-3%	O=C(CN(Cc1cccs1)C(=O)CNS(=O)(=O)c1ccccc1)NC1CCCC1
70	-2.4%	6%	2	-2%&-16%	CCOc1ccc(CNC(=O)CCCc2cn(C)c3ccccc23)cc1OC
71	2.1%	1%	/	17%	COc1ccc(S(=O)(=O)Nc2ccc3c(c2)n(C)c(=O)n3C)cc1C
72	-1.0%	5%	8	1%	CCC(C)NC(=O)c1ccc(CS(=O)(=O)Cc2ccc(Cl)cc2)o1 (stereo not drawn)
73	-3.4%	30%	/	1%	Cc1ccc2[nH]c(=O)c(Cc3ccccc3)c(O)c2c1
74	-3.4%	1%	6	14%	COC(=O)c1cc(NC(=O)Cc2ccc(OC)cc2)cc(C(=O)OC)c1
75	-0.1%	-9%	-10	-12%	Cc1ccc(Nc2nc(NCCCN3CCOCC3)nc(N)c2[N+](=O)[O-])cc1

4 of the entries above in order of the miR-21 reporter value, ascending:
no.	Rango-impB inh	Rango dissoc inh	GLA inh pH 4.5	miR-21 reporter	Molecule
62	-0.4%	20%	-4	-10%	CC1(C)CC(=O)C(C(=O)CCCCC(=O)C2C(=O)CC(C)(C)CC2=O)C(=O)C1
53	0.8%	-32%	/	-6%	S=c1[nH]nc(COc2ccc(Cl)cc2Cl)n1-c1ccccc1
67	-3.5%	-15%	-9	0%	CC[n+]1ccc(C)c2cc(S(=O)C(F)(F)F)ccc21 (stereo not drawn)
72	-1.0%	5%	8	1%	CCC(C)NC(=O)c1ccc(CS(=O)(=O)Cc2ccc(Cl)cc2)o1 (stereo not drawn)

Other results:
no.	Rango-impB inh	Rango dissoc inh	GLA inh pH 4.5	miR-21 reporter	Molecule
76	-2.4%	1%	/	/	O=S(=O)(NC1CCC(NS(=O)(=O)c2c(F)cccc2F)CC1)c1ccc2c(c1)OCCO2 (stereo not drawn)
77	-1.2%	6%	/	/	CCc1ccc(C(C)NC(=O)COC(=O)c2ccc(-n3cnnn3)cc2)cc1 (stereo not drawn)
78	0.0%	9%	/	/	CCOc1ccc(CN(C)C(=O)CNC(=O)c2sc3ccccc3c2Cl)cc1
79	-1.5%	5%	6	-6%	COc1ccc(/C=C/C(=O)NCCc2nc3ccccc3[nH]2)cc1
80	5.8%	50%	-2	-35%	COc1cc2c(=O)c(-c3ccc(O)cc3)coc2cc1OC1OC(CO)C(O)C(O)C1O (stereo not drawn)
81	4.6%	12%	0	-34%	Nc1ccc(Cc2nc3c(ccc4ccccc43)[nH]2)cc1
82	-2.3%	6%	/	6%	O=C(O)c1nn(Cc2csc(-c3ccccc3)n2)c(=O)c2ccccc12
83	-2.5%	-13%	/	-4%	CCOc1cc(-c2noc(CCC(=O)NCC3CCCO3)n2)ccc1OC (stereo not drawn)
84	-2.7%	-24%	/	/	O=C1CSC(=S)N1N=Cc1ccc2c(c1)OCO2
85	-5.2%	-11%	/	/	CCOC(=O)c1c(NC(=O)COC(=O)C2CCC2)sc(C(=O)N(C)C)c1C
